Vero: viability loss in Vero cells – cytotoxicity control for Vif-APOBEC3G degradation inhibitor project, dose response (AID 1117358) | Vero viability, CellTiter-Glo ATP luminescence, 72 h; reference of the scale not given here | CC50 in µM for hits, for the others viability, % at the top dose, mostly 40 µM | 2,300 compounds, 7% hits;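 active = viability down to 80% or less at some dose; inactive = above 80% at all doses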
An asterisk follows results filed as active.

cpd | structure | Vero
1 | COc1ccc(/C=N/OCC(=O)Nc2cc(C)on2)cc1OC | 99%
2 | O=C(c1cc2n(n1)C(C(F)(F)F)CC(c1ccco1)N2)N1CCc2ccccc2C1 (stereo unspecified) | 95%
3 | O=C(c1ccc(N2CCN(C3CC(=O)N(c4ccc(F)cc4)C3=O)CC2)cc1)c1cccnc1 (stereo unspecified) | 100%
4 | O=C1CCCC2=C1C(O)(C(F)(F)F)C(=O)N2Cc1ccccc1 (stereo unspecified) | 90%
5 | COc1ccc(CSc2nnnn2C)cc1F | 94%
6 | CC[n+]1ccc(C)c2cc(S(=O)C(F)(F)F)ccc21 (stereo unspecified) | 95%
7 | Cc1cccc(C(=O)Nc2nnc(Cc3c[nH]c4ccccc34)s2)c1 | 88%
8 | O=C(Cn1cc2c(n1)CCCC2)NCc1cccnc1 | 95%
9 | S=c1[nH]nc(COc2ccc3c(c2)OCO3)n1-c1ccccc1 | 89%
10 | C=CCn1c(SCC(=O)NCCCC)nc2scc(-c3ccco3)c2c1=O | 103%
11 | Cc1ccc(Nc2cnn(C34CC5CC(CC(CC(=O)O)(C5)C3)C4)c(=O)c2Cl)cc1C | 98%
12 | COc1cc(CNCCc2ccccc2F)ccc1OCc1ccc(Cl)nc1 | >40µM*
13 | CCCCNC(=O)C1CCCN(S(=O)(=O)c2ccc(-n3cnnn3)cc2)C1 (stereo unspecified) | 95%
14 | CSCCC(CO)NC(=O)OCc1ccccc1 (stereo unspecified) | 95%
15 | CCOc1ccc2nc(N3CCCC(C(=O)NCCCN4CCOCC4)C3)sc2c1 (stereo unspecified) | 89%
16 | COc1ccc2[nH]c3c(N4CCC(O)(c5cccc(C(F)(F)F)c5)CC4)ncnc3c2c1 | 29µM*
17 | Cc1ccc(-c2csc(NC(=O)c3ccc(-c4ccccc4)cc3)n2)o1 | 94%
18 | COc1ccc(C(=O)N2CCCC(C(=O)N3CCCCCC3)C2)cc1 (stereo unspecified) | 97%
19 | CCOc1ccc2nc(SCC(=O)c3cccs3)sc2c1 | 97%
20 | O=C(O)CCc1ccc(-c2ccc(Br)cc2)o1 | 110%
21 | CCCCn1c(=NC(=O)c2cccnc2)c(C#N)cc2c(=O)n3cccc(C)c3nc21 | 94%
22 | CSc1nc(N)c(C#N)c(-c2ccccc2Cl)c1C#N | 102%
23 | Cc1ccc(C(=O)OCc2cn3ccccc3n2)cc1 | 94%
24 | Cc1ccc(S(=O)(=O)N2CCCC2C(=O)N(C)Cc2cccs2)cc1 (stereo unspecified) | 101%
25 | COc1cccc(OC)c1C(=O)Nc1cc(Cl)ccc1N1CCOCC1 | 101%
26 | NC(=O)c1nsnc1-c1ccccc1O | 96%
27 | COc1ccc(N2CCN(C(=O)c3ccc(C)c(Cl)c3)CC2)cc1 | 99%
28 | CC(=O)N1CCN(c2ccc(NCc3ccc(F)cc3)cc2)CC1 | 95%
29 | COc1ccc(OCC(O)CNc2ccc(Br)cc2)cc1 (stereo unspecified) | 102%
30 | Cn1c(=O)c2c(nc(NCCc3ccccc3)n2Cc2ccccc2)n(C)c1=O | 95%
31 | CC(=O)N1CCN(c2nc(-c3ccco3)c3c(c2C#N)CC(C)(C)SC3)CC1 | 98%
32 | O=C1NC(=S)N/C1=C/c1ccc(-c2c(Br)cc([N+](=O)[O-])cc2Br)o1 | >40µM*
33 | CS(=O)(=O)N(CC(=O)Nc1ccc2c(c1)OCO2)Cc1ccccc1 | 100%
34 | O=C(NNC(=O)c1cccnc1)Nc1ccc([N+](=O)[O-])cc1 | 86%
35 | CCCc1nc(SCC(=O)N2CCCc3ccccc32)c2c(=O)n(C)c(=O)n(C)c2n1 | 98%
36 | Cc1ccc(OC(=O)COc2ccccc2)c(-n2nc3ccccc3n2)c1 | 93%
37 | CCCCOc1ccc(C(=O)NCC(=O)NCC(=O)OCC)cc1 | 88%
38 | O=C(Nc1nccc(-c2cccs2)n1)c1ccccc1Cl | 105%
39 | CCOC(=O)c1ccc(NC(=O)CSc2nnc(Cc3cccs3)n2C)cc1 | 100%
40 | CCOC(=O)c1cc(NC(=O)N2CCCc3ccccc32)c(C)nc1C | 96%
41 | Cc1ccc(S(=O)(=O)Nc2ccc3nc(C)sc3c2)cc1 | 86%
42 | C=CCn1c(C)cc(-c2csc(N)n2)c1C | 98%
43 | CCNc1nc(NCC)nc(OCCNS(=O)(=O)c2cc(C)ccc2C)n1 | 94%
44 | COc1ccc(S(=O)(=O)N2CCC(C(=O)NCCC3=CCCCC3)CC2)cc1C | 98%
45 | COCC(=O)NC1CCN(CC(=O)Nc2ccc(OC)cc2[N+](=O)[O-])CC1 | 96%
46 | Cc1onc(-c2c(F)cccc2Cl)c1C(=O)Nc1nnc(C2CC2)s1 | 81%
47 | Cc1nn(C(=O)c2cccnc2)c(C)c1C | 89%
48 | COC(=O)C1=C(C)N(C)C(C)=C(C(=O)OC)C1c1ccc(F)c(Br)c1 | 81%
49 | CNC(=S)N(Cc1ccc(OC)cc1)C1CC(=O)N(c2ccc(Cl)cc2)C1=O (stereo unspecified) | 86%
50 | CCc1nc(NCC2CCCN2CC)c2nnn(Cc3ccccc3F)c2n1 (stereo unspecified) | 85%

(listing goes on)
cpd | structure | Vero
51 | O=C(CCn1c(=O)c2ccccc2n(CC(=O)NCCC2=CCCCC2)c1=O)NCc1ccco1 | 103%
52 | CCN1C(=O)CS/C1=C(\C#N)S(=O)(=O)c1ccccc1 | 93%
53 | CCN1CCN(c2ccc(NC(=O)Cc3ccccc3)cc2)CC1 | 99%
54 | O=C(COc1ccc(Cl)cc1)N1CCN(S(=O)(=O)c2ccc(Cl)cc2)CC1 | 103%
55 | CNc1nc(Sc2cccc(C(F)(F)F)c2)cc(C(F)(F)F)n1 | 100%
56 | Cn1nc(CC(=O)NCCN2C(=O)CSC2=O)c2ccccc2c1=O | 93%
57 | O=C(Nc1ccccc1-c1nnn(CC(=O)N2CCc3ccccc3C2)n1)C1CCC1 | 109%
58 | CCN1C(=O)/C(=C/N2CC(C)CC(C)C2)SC1=S (stereo unspecified) | 101%
59 | Cc1ccc(NC(=O)/C=C\C(=O)O)c([N+](=O)[O-])c1 | 108%
60 | CCCn1nnnc1-c1cccc(Cl)c1 | 104%
61 | CCOC(=O)C1=C(N)n2c(s/c(=C/c3ccco3)c2=O)=C(C(=O)OC)C1c1ccco1 (stereo unspecified) | >40µM*
62 | CCc1ccc(N/C(SCc2cccc(F)c2)=C(/C#N)C(=O)NCc2ccco2)cc1 | >40µM*
63 | O=C1C2CCCN2C(c2ccccc2)N1c1nccs1 (stereo unspecified) | 102%
64 | Cn1c(-c2ccc(Cl)cc2)ccc(C#N)c1=O | 89%
65 | Nc1nc(SCc2ccccc2Cl)n[nH]1 | 89%
66 | C#CCSc1nnc(-c2sc3ccccc3c2Cl)o1 | 94%
67 | COCCCNC(=O)/C(C#N)=C/c1ccc(OCC(=O)O)c(OC)c1 | 95%
68 | CCCNC(=O)c1cccc(Cn2nc(C)c(Br)c2C)c1 | 85%
69 | CCCNC(=O)c1ccc2c(c1)C1C3CCC(C3)C1C(c1ccccc1)N2 (stereo unspecified) | >40µM*
70 | Cc1cccc(C)c1NC(=O)Cn1c(=O)n(CCCC(=O)NCc2ccco2)c(=O)c2sccc21 | 96%
71 | COc1ccc(S(=O)(=O)N(CCc2ccccc2)CC(=O)NC(C)C)cc1 | 90%
72 | CCn1c(SCC(=O)NCc2ccc3c(c2)OCO3)nnc1-c1cccs1 | 98%
73 | CC(NC(=O)/C(C#N)=C/c1cn[nH]c1-c1ccccc1)c1ccccc1 (stereo unspecified) | 83%
74 | CCn1c(-c2csc(-c3ccc(Cl)cc3)n2)n[nH]c1=S | 97%
75 | Cc1c(C(=O)Nc2ccncc2)oc2c1C(=O)CC(C)(C)C2 | 96%
76 | CCOC(=O)c1sc(-c2ccccc2)cc1NC(=O)CSc1nnnn1C | 90%
77 | O=C1/C(=C\c2ccco2)SC(=S)N1Cc1ccccc1 | 94%
78 | CCN(CC)c1ccc(NC(=O)c2ccco2)cc1 | 97%
79 | CCCCCCc1nc2c(=O)[nH]c3ccccc3c2o1 | 98%
80 | COc1ccccc1/C=C(/CC(=O)NCc1ccccc1)c1nc2ccccc2s1 | 86%
81 | CC12C(=O)N(c3ccccc3C(=O)O)C(=O)C1C1C=CC2C1 (stereo unspecified) | 101%
82 | O=C1CCCC(O)=C1C=Nc1ccc(O)cc1 | 113%
83 | CCCCn1cnc2cc(NCc3ccncc3)ccc21 | >40µM*
84 | N#Cc1nc(-c2ccco2)oc1N1CCN(c2ccccc2)CC1 | 96%
85 | CCCc1cc(=O)oc2cc(C)c(CN3CCCC3)c(O)c12 | 91%
86 | O=C1CCCC(NCCCCCCNC2=C([N+](=O)[O-])C(=O)CCC2)=C1[N+](=O)[O-] | 109%
87 | CCOC(=O)C1CCCN(c2c(NCCN(CC)c3ccccc3)c(=O)c2=O)C1 (stereo unspecified) | 95%
88 | COc1cccc(C(C#N)N2CCCCC2)c1O (stereo unspecified) | 97%
89 | CCOC(=O)c1c(C)[nH]c(C(=O)CSc2nnc(C3CC3)n2N)c1C | 89%
90 | O=c1c2c([nH]c3ccccc13)CCCCCC2 | 95%
91 | OCCNc1ccc(Cl)cc1 | 94%
92 | Cc1ccc(C)c(-n2c(Cc3cc(=O)[nH]c(=O)[nH]3)nnc2SC(C)C)c1 | 99%
93 | COc1ccc(-n2ncc3c(N4CCC(C(N)=O)CC4)ncnc32)cc1 | 101%
94 | CCC(NC(=O)Nc1ccc(O)cc1)(C(F)(F)F)C(F)(F)F | 94%
95 | CCCSC1=N/C(=C\C=C\c2ccco2)C(=O)S1 | 95%
96 | O=C(c1ccc(S(=O)(=O)N2CCOCC2)cc1)N1CCN(c2cccc(Cl)c2)CC1 | 83%
97 | Clc1ccc(/C=N/c2c(-c3ccco3)nc3ccccn23)cc1 | 99%
98 | CC(=O)N1CCN(c2ccc(NCc3ccccc3)cc2)CC1 | 100%
99 | Cc1nc(C(=O)N(C)C)nn1-c1cc(Cl)cc(Cl)c1 | 98%
100 | CCN(c1cccc(C)c1)S(=O)(=O)c1cnc[nH]1 | 100%

Remaining list, next part.
cpd | structure | Vero
101 | CC(CN1CCN(C)CC1)OC(=O)c1ccccc1Cl (stereo unspecified) | 95%
102 | CCc1nc(OCc2ccco2)c2sc3nc4c(cc3c2n1)COC(C)(C)C4 | >40µM*
103 | Cc1ccc2nsnc2c1S(=O)(=O)N(Cc1ccco1)Cc1cc2cccc(C)c2[nH]c1=O | 102%
104 | CCCCn1nc(C(=O)O)ccc1=O | 91%
105 | CN(C)CCOCCSc1ccc(Cl)cc1 | 85%
106 | Clc1ccc2nc3ccccn3c2c1 | 88%
107 | C/C(=N\OC(=O)c1ccc(F)cc1)c1sc(-c2ccccc2)nc1C | 96%
108 | O=C(CN1c2ccccc2Sc2ccccc21)NNC(=S)Nc1ccc(Cl)cc1Cl | 108%
109 | CCCNS(=O)(=O)c1ccc(NC(=O)c2ccccn2)cc1 | 94%
110 | Cc1cc(-c2[nH]nc3c2C(c2cccc(O)c2)C(C#N)=C(N)O3)c(C)s1 (stereo unspecified) | 97%
111 | COCC(=O)Nc1nnc(COc2ccccc2)s1 | 99%
112 | Cc1c(C=O)c(C=O)c(C)n1Cc1ccccc1 | 6.5µM*
113 | CCOC(=O)CSc1nnc(-c2ccco2)n1C | 93%
114 | Cc1ccc(C)c(S(=O)(=O)Nc2ccc3scnc3c2)c1 | >40µM*
115 | O=C(CSc1nnc(CN2CCOCC2)n1-c1ccccc1)Nc1ccc(Cl)cc1 | 105%
116 | Cc1ccc(S(=O)(=O)N2CCCC(C(=O)O)C2)s1 (stereo unspecified) | 100%
117 | N#Cc1ccc(-c2ccco2)nc1SCC(=O)c1ccc(Cl)cc1 | 93%
118 | Cc1cccc(-n2c(N)cc(=O)nc2SCC(=O)NC2CCCCC2)c1 | 95%
119 | CCSc1nnc(NC(=O)c2cccc3ccccc23)s1 | 99%
120 | Fc1ccc(-c2nnc(Cc3nnc(-c4ccc(F)cc4)o3)o2)cc1 | 105%
121 | Cc1ccc(SCC2=NNC(=O)C2)cc1 | 101%
122 | Cc1ccnc(N2CCC(C(=O)NNC(=O)c3ccccc3C)CC2)n1 | 106%
123 | COc1ccc(OC)c(C2NC(=O)NC(C)=C2C(=O)Nc2ccc(C)cc2)c1 (stereo unspecified) | 103%
124 | S=c1nc(-c2ccc(Br)cc2)oc2c1CCCC2 | 94%
125 | Clc1ccccc1CSc1nnc(-c2ccco2)c(-c2ccco2)n1 | 98%
126 | CSCCC(NC(=O)C1CCC(C)CC1)C(=O)NCc1ccco1 (stereo unspecified) | 98%
127 | Clc1ccc(Nc2nc(C3CC3)cs2)cc1 | 87%
128 | COCc1nnc(NC(=O)c2ccc(S(=O)(=O)N(C)C3CCCCC3)cc2)o1 | 100%
129 | CCCc1nc2ccccc2c(=O)n1NC(=O)c1c(O)c2cccc3c2n(c1=O)CCC3 | 89%
130 | CCOc1cccc(=O)c2c(C)n(C)c(C)c12 | 99%
131 | COC(=O)C1C(O)=C(C=Nc2ccc(N)cc2)C(=O)CC1(C)C (stereo unspecified) | 103%
132 | O=C(O)CCC(=O)NNC(=O)CCC(=O)NCc1ccccc1 | 112%
133 | COC(=O)c1cccc(NC(=O)c2ccc3c(c2)C(=O)N(CC2CCCO2)C3=O)c1 (stereo unspecified) | 94%
134 | COC(=O)C(C)Sc1nnc(Cc2cc(=O)[nH]c(=O)[nH]2)n1-c1cc(C)ccc1C (stereo unspecified) | 102%
135 | Clc1ccc(Sc2oc(/C=N/n3cnnc3)cc2Br)cc1 | 88%
136 | COc1ccc(NCc2nnc(SCC(=O)N3CCCc4ccccc43)o2)cc1 | 98%
137 | O=C(NC(=S)NCCN1CCOCC1)c1ccc(Cl)cc1Cl | 100%
138 | CCOc1ccc2nc(NC(=O)CCn3cccc3)sc2c1 | 85%
139 | CCC(=O)Nc1cc(C(=O)OCC(=O)c2ccccc2Cl)ccc1C | 95%
140 | CC1(c2ccc3noc(-c4ccccc4)c3c2)OCCO1 | 92%
141 | Cn1c(=O)c2c(ncn2CCCNC2=CC(C)(C)CC(=O)C2)n(C)c1=O | 93%

High-throughput results: PubChem BioAssay, Southern Research Institute

This is a subset. The share of hits here may be higher or lower than overall.
